Compound activity deposited in PubChem by Center for Chemical Genomics, University of Michigan.
HIV TAR-Tat: HIV-1 TAR-Tat binding disruption; 100,000 compounds, 0.6% hits; AID 1259389; z-score (concentration not given with the values); HIV-1 TAR RNA, Tat peptide displacement FRET; hits give high values;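 further: score is relative to mean and SD of negative controls; some compounds called inactive have numbers as strong as hits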
CDC25B CDK2 inh: human CDC25B-CDK2/CyclinA binding inhibition | HTRF CDC25B-CDK2/CyclinA binding, anti-His/anti-Flag; hits give high values | z-score (concentration not given with the values) | 94,000 compounds, 0.72% hits | AID 1259370;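 further: score is relative to mean and SD of negative controls; strong numbers were not always called active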
* = called active by the depositor; · = not tested or not shown.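 How the source made its calls: active means z-score from 3 up in half or more of its runs; inactive means the rest.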

SMILES	HIV TAR-Tat	CDC25B CDK2 inh
CC(=O)N1c2ccc(S(=O)(=O)N(C)c3cc(C)ccc3C)cc2CC1C (configuration not stated)	·	-0.81
COC(=O)c1cc(S(=O)(=O)N2CCC(C)CC2)cn1C	1.1	-0.21
CCCCC(=O)n1c(=O)oc2cc(Br)ccc21	-1.7	·
CCOC(=O)COc1cc2c(C(=O)OC(C)C)c(C)oc2cc1Br	1	-0.34
Cc1c(C(=O)N2CCCCC2)c(S(=O)(=O)N2CCCCC2)c(C)n1C	-3.1	·
Cc1ncc(-c2ccc(S(=O)(=O)Nc3ccc(F)cc3Cl)cc2)o1	1.6	·
Cc1c(CNC(=O)c2cc3n(n2)C(C(F)(F)F)CC(c2ccc4c(c2)OCO4)N3)cnn1C (configuration not stated)	2.9	-2.3
O=C1c2ccccc2C(=O)N1c1nc2nc(-c3ccccc3)cc(=O)n2[nH]1	·	0.81
CN(C)CCNc1sc(S(=O)(=O)c2ccccc2)nc1S(=O)(=O)c1ccc(Cl)cc1	-1	0.84
COc1ccc2cc(CCNC(=O)c3cc4ccccc4oc3=O)c(=O)[nH]c2c1	·	-0.87
CCOC(=O)/C=C/c1cc(C(=O)OCC)c(/C=C/C(=O)OCC)cc1C(=O)OCC	·	-2.3
CCCNC(=O)c1c(O)c2cccc3c2n(c1=O)CC3	1.4	·
CCOC(=O)Cc1c(C(=O)OCC)[nH]c(C)c1C(=O)OCc1ccccc1	·	-1.6
CCCC(=O)Nc1ccc2nc(SCc3cc(=O)n4nc(CC)sc4n3)sc2c1	-0.14	·
CCc1ccc2occ(CC(=O)N(Cc3ccc(F)cc3)C3CCS(=O)(=O)C3)c2c1 (configuration not stated)	-0.21	-0.75
CC1=C(C)C(=O)C(C(CCCCCC(=O)O)c2ccccc2)=C(C)C1=O (configuration not stated)	0.59	·
CC(=O)OCCn1c(=O)c2ccccc2c2ccccc2c1=O	·	-0.52
O=C1CC(c2ccccc2)Cc2c1cnn2-c1nc2ccccc2s1 (configuration not stated)	-1.9	-0.95
CCOC(=O)CSc1nc2cc(OC)c(OC)cc2c2nc(CCn3nc(C)cc3C)nn12	·	-2.2
CCCCNC(=O)c1oc2c(c1C)C1N=C(C)SC1CC2 (configuration not stated)	0.06	·
CC1(C)CC(=O)c2cnc(NC(=O)Nc3ccccc3)nc2C1	1.4	-0.46
CCOC(=O)c1sc(=S)n(-c2ccc(OC)cc2)c1C	0.5	-1.9
CC(=O)Oc1ccc(C2OC(c3nc4nc(C)cc(C)n4n3)=NN2C(C)=O)cc1 (configuration not stated)	1.4	·
OCCn1c(SCc2ccccc2)nc2ccccc21	0.36	2
O=C(CCCN(Cc1ccc(F)cc1)S(=O)(=O)c1ccc(Br)cc1)NO	2.6	·
CN(Cc1ccccc1)Cc1nc2c(c(=O)n(C)c(=O)n2C)n1CC(N)=O	-1	-0.87
Cc1c(CCC(C)C)c(-n2ccnc2)n2c(nc3ccccc32)c1C#N	0.64	-0.28
COc1ccc(-n2ccnc2SCC(=O)Nc2cc(Cl)ccc2OC)c(OC)c1	1.4	·
O=C(Oc1ccccc1Cl)c1cc(-c2cccs2)on1	1	-0.56
Cc1ccccc1-c1nc(NC(=O)CSc2ncnc3sc(C)c(C)c23)ns1	1.6	5.4
CN(C)CCOC(=O)c1cc2ccccc2o1	1.6	0.33
Cc1ccc(NS(=O)(=O)C2CCS(=O)(=O)C2)cc1C (configuration not stated)	0.48	-1.6
COc1ccc(OC)c(S(=O)(=O)n2nc(C)c(S(=O)(=O)N3CCC(C)CC3)c2C)c1	0.85	·
O=C(O)c1cc(NS(=O)(=O)c2ccc(NCCCN3CCOCC3)c([N+](=O)[O-])c2)cc(C(=O)O)c1	·	-0.46
COc1ccc(C2CC(=O)c3cnc4[nH]n(-c5ccccc5)c(=O)c4c3C2)cc1OC (configuration not stated)	0.08	-2.5
CCN(C(=O)[C@@H]1[C@H]2C[C@H]3[C@@H]1C(=O)O[C@H]3C2)c1c(C)cccc1C	-0.96	-2
COc1cc(OC)c(Nc2cc(C)nc3nc(-c4ccco4)nn23)cc1Cl	-0.76	·
CCC(=O)OC1=C(C(=O)OC)N(CC)S(=O)(=O)c2ccccc21	1.2	2
Cc1cc(S(=O)(=O)NCCc2sc3nc(-c4ccc(F)cc4)nn3c2C)ccc1F	0.17	·
CC(=O)N1CCN=C1Nc1c(Cl)nc(C)nc1Cl	0.97	-1.3
CC1=C(C(=O)OC(C)C)C(c2sccc2C)n2c(nc3ccccc32)N1 (configuration not stated)	1	-1.5
C=CCN1C(=O)/C(=C\c2ccc(OCc3ccc(Br)cc3)c(OC)c2)SC1=S	·	-9.1
COc1ccccc1-c1nn2c(C(C)(C)C)nnc2s1	-1.8	-1.7
O=C1Cc2cc(S(=O)(=O)Nc3ccccc3)cc3c2N1CCC3	1.8	·
Cn1c(=O)c2c(-c3ccc(Br)cc3)n(Cc3ccc(F)cc3)cc2n(C)c1=O	2.1	-1.4
CCCCn1c(=S)[nH]c2ncccc2c1=O	·	-1.7
COc1ccccc1-c1noc(CSc2nnc(C)n2-c2ccc(C)cc2)n1	0.37	-2.5
CCOc1ccc(/C(O)=C2\C(=O)C(=O)N(CCCN(C)C)C2c2ccc(C)cc2)cc1C (configuration not stated)	-1.5	-0.12
CCCN1CCN(C(=O)CC(C)S(=O)(=O)c2ccc3c(c2)CCN3C(C)=O)CC1 (configuration not stated)	0.54	·
COCCn1c(C2CC(=O)N(c3ccc(Cl)cc3)C2)nc2ccccc21 (configuration not stated)	-2.1	-2.4

The final two compounds of the part before are carried over, then new ones follow.
SMILES	HIV TAR-Tat	CDC25B CDK2 inh
CCCN1CCN(C(=O)CC(C)S(=O)(=O)c2ccc3c(c2)CCN3C(C)=O)CC1 (configuration not stated)	0.54	·
COCCn1c(C2CC(=O)N(c3ccc(Cl)cc3)C2)nc2ccccc21 (configuration not stated)	-2.1	-2.4
COc1cc(C2C(=O)N(C3CCCCC3)CC(=O)N2Cc2ccco2)ccc1OC(C)C (configuration not stated)	·	0.86
CCCN(CCC)C(=O)Cn1ncn2c(cc3sc(CC)cc32)c1=O	1.2	-2.3
O=C(Cc1c(O)c2ccccc2[nH]c1=O)OC1CCCCC1	·	-1.6
COc1ccc(NC(=O)CSCc2cc(=O)n3c(C)csc3n2)cc1	1.2	·
O=C(NCc1ccc(S(=O)(=O)NC2CCCCC2)s1)c1ccccc1	·	1.4
Cn1cc(S(=O)(=O)c2ccccc2)c(=O)c2cc(Cl)ccc21	2.4	-2
CC(C)(C)c1ccc(S(=O)(=O)N(C(=O)c2cccnc2)c2ccc3oc(=O)sc3c2)cc1	-1.2	-0.36
CCn1nc(C)c(CNC(=O)NCCCOC)c1C	-0.15	·
Cc1nn(CC(=O)NC2CCc3ccccc32)c(=O)c2ccccc12 (configuration not stated)	0.48	0.33
CCN1CCN(c2nc(N)c([N+](=O)[O-])c(Nc3cccc(Cl)c3)n2)CC1	1	·
Cc1ccc(CNc2ncccc2-c2nc(-c3ccc(Cl)cc3)no2)cc1	-0.35	-1.3
COC(=O)c1c(C)oc2cc(Br)c(O)cc12	2.8	-3.7
Cn1c(=O)sc2cc(NC(=O)c3cccs3)ccc21	0.18	·
Cc1ccc(CNc2ncnc3onc(-c4ccc(C)cc4)c23)cc1	1.6	·
COc1ccc2[nH]c(=O)c(-c3noc(-c4ccncc4)n3)cc2c1	2.9	-1.6
COc1ccc(N(C)S(=O)(=O)c2c(C)noc2C)c(OC)c1	0.84	-1.4
O=C(CCCO)NCCc1nc2ccccc2[nH]1	1.3	-1.1
O=C(CCCn1c(=O)c2cccn2c2ccccc21)NC1CCCc2ccccc21 (configuration not stated)	2	·
Cc1cc(NC(=O)CSc2cn(CC(=O)N3CCOCC3)c3ccccc23)no1	1.1	·
CCOc1cc(C2C(C(=O)OCCOC)=C(C)Nc3nc4ccccc4n32)ccc1O (configuration not stated)	1.7	-1.5
O=C(O)CC1(CC(=O)Nc2cccc3nsnc23)CCCCC1	·	-2
Cc1cc(NC(=O)CSc2nc3cc4c(cc3c(=O)n2Cc2ccco2)OCO4)n[nH]1	·	-0.8
CCCCN1C(SCC(=O)NC(C)C)=NS(=O)(=O)c2ccccc21	0.22	·
COc1ccc(/C(C#N)=C2C=C/C(=N\O)C(Cl)=C\2)cc1	·	-0.82
CCCS(=O)(=O)N1CCC2(CC1)Nc1cccnc1NC2=NC1CCCCC1	-1.2	·
CCOC(=O)COc1ccc(/C=c2/sc3nc4cc(C)c(C)cc4n3c2=O)cc1OC	·	-1.3
COc1ccccc1OCCSc1nc2ccccc2n1CC(=O)N1CCCC1	0.67	-1
Cc1cc(C)c(Cn2cccc2CNC(=O)Nc2ccc(F)cc2F)c(C)c1	-3	·
CCOCCCNc1nc2c(-c3ccc(Cl)cc3)nnn2c2ccccc12	1.6	-0.9
Cn1c(SCC(=O)c2ccc3c(c2)OCCO3)nnc1-c1ccc2c(c1)OCCCO2	1.4	·
CCOc1ccc(S(=O)(=O)[C@H]2CS(=O)(=O)C[C@@H]2NCc2cccnc2)cc1	1.4	-1.8
CC(NC(=O)C(C)n1sc2ccccc2c1=O)c1ccc2c(c1)OCCO2 (configuration not stated)	3.9	-1.3
CS(=O)(=O)c1nc(S(=O)(=O)c2ccc(Cl)cc2)c(NCCc2c[nH]c3ccccc23)s1	-0.17	-1.3
CCc1ccccc1N1CSC2=C(C#N)C(c3cccs3)CC(=O)N2C1 (configuration not stated)	-0.35	6.7*
NS(=O)(=O)c1ccc(-c2ccc(/C=N/O)o2)cc1	·	-1.6
Cc1onc(C(=O)Nc2ccc3c(c2)OCO3)c1[N+](=O)[O-]	2.2	-2.8
COc1ccc(C2CC(c3ccc(C)cc3C)=NN2C(C)=O)cc1 (configuration not stated)	·	0.11
O=C(O)Cc1sc(-c2ccc(Cl)cc2)nc1O	·	-0.61
CC(=O)O[C@@H]1CC(=O)[C@@]2(C)C(CC(=O)[C@]3(C)C2CC[C@@]2(C)[C@H](c4ccoc4)OC(=O)C4OC423)C1(C)C (some centres not stated)	2.2	·
O=C(Cn1nc(-c2ccccc2)c2ccccc21)N1CCc2ccccc21	2.3	-1.1
CCOc1ccc(C2c3c(oc4ccc(C)cc4c3=O)C(=O)N2Cc2ccc3c(c2)OCO3)cc1 (configuration not stated)	1.2	-3.5
O=C(COC(=O)C1c2ccccc2Oc2ccccc21)c1ccc(Cl)cc1	-0.03	-0.13
CC1CC(=O)N(CC(N)=O)c2ccccc2S1(=O)=O (configuration not stated)	1	-1.1
COC(=O)c1cc(S(=O)(=O)N2CCCC3CCCCC32)cn1C (configuration not stated)	-0.26	·
COc1ccc(-c2noc(NCc3cc(OC)ccc3OC)n2)cc1	-1.1	·
COC(=O)c1nnn(-c2cc(Cl)ccc2OC)c1C(=O)OC	0.98	-1.9
CN1CCN(CCNC(=O)c2cnc(N3CCOCC3)nc2)CC1	1.1	·
COC(=O)C1=C(C)Nc2nc3ccccc3n2C1c1cccc(OC)c1OC (configuration not stated)	-0.22	-0.76
CCOC(=O)c1c(NC(=O)CSc2nc3c(c(=O)[nH]2)CCC3)sc2c1CCCC2	2	1.2
CNC(=O)c1c(NC(=O)c2sc3ccccc3c2Cl)sc2c1CCC2	-3.3	·

Going on with the list:
SMILES	HIV TAR-Tat	CDC25B CDK2 inh
CCCCC(=O)Nc1nc2ccc(S(C)(=O)=O)cc2s1	1.2	-2.3
Cc1ccc(CNc2c(-c3cc(C)c(C)cc3C)c(=O)c2=O)cc1	-1.8	·
N#Cc1nc(/C=C/c2ccc(F)cc2)oc1N1CCN(C(=O)c2ccc(Cl)cc2)CC1	-0.65	-2.1
O=S(=O)(NCC(c1ccccc1)N(Cc1ccco1)C1CCCC1)c1ccc(Cl)cc1 (configuration not stated)	3.9	-2.5
COc1cccc2c1Oc1nc(-c3ccc(O)cc3)[nH]c(=O)c1C2	2.9	-1.9
CCCc1[nH]nc2c1C(c1ccccc1F)C(C#N)=C(N)O2 (configuration not stated)	0.49	-1.6
Cc1ccc(C2c3c(-c4ccc(Cl)cc4)n[nH]c(=O)c3Nc3nnnn32)cc1 (configuration not stated)	1.1	-1.5
O=C(NCCC1=CCCCC1)C1CCN(c2ccc(-c3cccs3)nn2)CC1	-1.1	·
O=C1c2ccccc2C(=O)N1CCC(=O)N1c2ccccc2Sc2ccccc21	·	-2.3
COc1ccc2nc(NC(=O)c3nn(-c4ccccc4)ccc3=O)sc2c1	0.88	2.5
CCOc1ccc(Nc2nc(C3(C)CC4(CC(C)OC4=O)C(=O)O3)cs2)cc1 (configuration not stated)	·	-1.8
Cc1ccc([N+](=O)[O-])c(C(=O)N/N=C/c2cccs2)c1	·	0.07
CCN(CC)C(=O)c1ccc(Cn2cc([N+](=O)[O-])cn2)o1	1	-0.07
COC(=O)c1c(NC(=O)COc2ccc(Br)cc2)sc2c1CCC(C)C2 (configuration not stated)	-0.23	-2.8

Gathered by group: the entries above containing a thiophene ring, fused or not.
SMILES	HIV TAR-Tat	CDC25B CDK2 inh
O=C(Oc1ccccc1Cl)c1cc(-c2cccs2)on1	1	-0.56
Cc1ccccc1-c1nc(NC(=O)CSc2ncnc3sc(C)c(C)c23)ns1	1.6	5.4
CC1=C(C(=O)OC(C)C)C(c2sccc2C)n2c(nc3ccccc32)N1 (configuration not stated)	1	-1.5
CCCN(CCC)C(=O)Cn1ncn2c(cc3sc(CC)cc32)c1=O	1.2	-2.3
O=C(NCc1ccc(S(=O)(=O)NC2CCCCC2)s1)c1ccccc1	·	1.4
Cn1c(=O)sc2cc(NC(=O)c3cccs3)ccc21	0.18	·
CCc1ccccc1N1CSC2=C(C#N)C(c3cccs3)CC(=O)N2C1 (configuration not stated)	-0.35	6.7*
CCOC(=O)c1c(NC(=O)CSc2nc3c(c(=O)[nH]2)CCC3)sc2c1CCCC2	2	1.2
CNC(=O)c1c(NC(=O)c2sc3ccccc3c2Cl)sc2c1CCC2	-3.3	·
O=C(NCCC1=CCCCC1)C1CCN(c2ccc(-c3cccs3)nn2)CC1	-1.1	·
Cc1ccc([N+](=O)[O-])c(C(=O)N/N=C/c2cccs2)c1	·	0.07
COC(=O)c1c(NC(=O)COc2ccc(Br)cc2)sc2c1CCC(C)C2 (configuration not stated)	-0.23	-2.8
